VACV Venus inh: vaccinia inhibition (Venus reporter); AID 720580; actives 0.46% (n = 330,000); Vaccinia virus Venus reporter expression, fluorescence; Potency, µM (top dose mostly 36.5 µM), inactives show at the top dose activity change, negative = inhibition, most hits filed as inhibitors; active means well fitted inhibition curve with a large enough effect; inconclusive means small, poorly fitted or top-dose-only effect; inactive means no such curve, though single readings can be large or run the other way; tested in A549 cells; further: nearly all actives have a fitted effect of over 30% in size; inactives centre near -10
VACV mCherry inh: inhibitors of vaccinia virus infection (mCherry reporter signal); Vaccinia virus mCherry reporter infection, fluorescence; about a quarter of the inactives have no number; Potency, µM (titrated, usually from 36.5 µM), without a hit: top-dose activity change, negative = inhibition, actives largely listed as inhibitors; actives 0.63% (n = 310,000); active = well fitted inhibition curve with a large enough effect; inconclusive = small, poorly fitted or top-dose-only effect; inactive = no such curve, though single readings can be large or run the other way; tested in A549 cells; further: nearly all actives have a fitted effect of over 35% in size; inactives centre near -10
The depositor's hits bear a star; i = inactive; ? = inconclusive; / = not tested or not shown; & = joins results of further samples; [ ] = remark or other dose. On the % scale 0 is the no-effect control and ±100 the full control effect; potency means the concentration at half of the fitted maximal effect.

SMILES	VACV Venus inh	VACV mCherry inh
O=C(COC(=O)/C=C/c1ccccc1)Nc1nnc(-c2ccccc2)o1	-2%	i
CCOc1ccc2oc(=O)cc(CN3CCN(c4cc(C)ccc4C)CC3)c2c1	-10%	-12%
C/C(Cn1nnc([N+](=O)[O-])n1)=N\NC(=O)c1ccccc1	13µM*	?
COc1ccc(NC(=O)c2cccc3c(-c4cccnc4)coc23)cc1	-21%	11%
CC(=O)c1c(C)n(CCc2ccc(Cl)cc2)c2ccc(O)cc12	-9%	-16%
CC1(C(=O)Nc2ccc(Cl)cc2)Cc2c(-c3cccc(C(N)=O)c3)ccnc2O1 (stereo not given)	-27%	?
CC(=O)C1=CCC(c2ccc(C)cc2)N(S(=O)(=O)c2ccc(C)cc2)C1 (stereo not given)	-5%	9%
COc1cc(CN2C[C@@H](CO)O[C@@H](n3cnc4c(N5CCN(C)CC5)ncnc43)C2)cc(OC)c1OC	1%	-8%
Cc1ccc(S(=O)(=O)c2c(CO)c(-c3ccccc3)nn2C)cc1	-15%	i
O=C(c1ccc(S(=O)(=O)c2ccc(Cl)cc2)cc1)N1CCOCC1	-8%	-2%
COc1cc(/C=C(\C#N)C(=O)Nc2ccc(C)cc2)ccc1OCc1cc(=O)n2nc(C)sc2n1	-6%	-9%
COc1ccc(CN2C3CCCC2CC(NC(=O)Nc2cccc(C)c2)C3)cc1 (stereo not given)	-28%	-6%
CCOc1ccc(CC(=O)NNC(=S)Nc2ccccc2)cc1Br	-1%	2%
CC(C)CNC(=O)CN1C(=O)NC2(CCc3ccccc32)C1=O (stereo not given)	-10%	i
OCC(O)COc1cccc2ccccc12 (stereo not given)	-2%	i
O=C(CN1C(=O)NC2(CCCCCC2)C1=O)c1ccc(F)cc1	-12%	-3%
O=C(O)c1cccc(NS(=O)(=O)c2ccc(C3CCCCC3)cc2)c1	-16%	-17%
Cc1cccc(N(C(=O)C(F)(F)F)C(C(=O)NC2CCCCC2)c2cccs2)c1 (stereo not given)	-1%	-8%
O=C(NCc1ccccc1F)C1CCN(c2nnc(-n3cccc3)s2)CC1	1%	2%
CCc1ccccc1N(CC(=O)NCC1CCCO1)C(=O)CCC(=O)Nc1cc(C)on1 (stereo not given)	-1%	-8%
CC(C)n1c(NCc2ccccc2O)nc2ccccc21	-13%	-18%
O=C1/C(=C/c2c[nH]c3ccccc23)CCC/C1=C\c1c[nH]c2ccccc12	-4%	?
CCOC(=O)/C(=C\c1cccnc1)C(=O)c1cc(C(C)=O)c(Nc2ccccc2)s1	11µM*	13µM*
Cc1c(NC(=O)COC(=O)C2CC3C=CC2C3)c(=O)n(-c2ccccc2)n1C (stereo not given)	-13%	/

A stretch of the results above, as a working copy:
SMILES	VACV Venus inh	VACV mCherry inh
O=C(NCc1ccccc1F)C1CCN(c2nnc(-n3cccc3)s2)CC1	1%	2%
CCc1ccccc1N(CC(=O)NCC1CCCO1)C(=O)CCC(=O)Nc1cc(C)on1 (stereo not given)	-1%	-8%

New compounds follow.
SMILES	VACV Venus inh	VACV mCherry inh
CCSc1nnc(NC(=O)c2cccc3ccccc23)s1	-14%	i
COc1cccc(Oc2nc(-c3ccncc3)nc3ccccc23)c1	-15%	-17%
CC(C)c1nn2c(=O)cc(COC(=O)Cc3ccccc3)nc2s1	5%	5%
CNC(=O)c1nc(C)n(-c2ccc([N+](=O)[O-])cc2)n1	-9%	i
CCOc1ccc(CN2CCc3nc(N4CCN(c5ccccn5)CC4)ncc3C2)cc1OC	?	?
CCOC(=O)C1CCN(C(=O)c2cc3c(OC)c(OC)c(OC)cc3[nH]2)CC1	-10%	-6%
O=C(CSc1ccccn1)Nc1ccccc1F	-1%	-13%
CCO[C@@H]1OC(C(=O)NCc2ccccc2)=C[C@H](c2ccc(C(F)(F)F)cc2)[C@H]1CCCO	-27%	-11%
CCOC(=O)c1c(NC(=O)Cc2cccs2)sc(C(=O)NC2CCCCC2)c1C	-4%	-15%
CC(=O)Nc1ccc(NC(=S)NC(=O)/C=C/c2ccco2)cc1	-11%	-20%
O=C(N/N=C/c1ccccc1[N+](=O)[O-])c1ccc(COc2ccccc2-c2ccccc2)cc1	-6%	-28%
O=C(NCCCN1CCCC1=O)c1ccc2c(c1)OCO2	-6%	-7%
Cc1cccc(-n2c(N)cc(=O)nc2SCC(=O)NC2CCCCC2)c1	-1%	/
CC(C)(C)c1cc[n+](C2=C([O-])c3ccccc3C(=O)/C2=N\S(=O)(=O)c2ccccc2)cc1	-21%	-17%
Cc1ccccc1OCc1nc2ccccc2c(=O)n1/N=C/c1ccco1	4%	/
CCCCNC(=O)C1CCC(=O)N1CCc1ccccc1 (stereo not given)	-11%	0%
CCCCc1c(O)nc(SCC(=O)c2ccccc2)[nH]c1=O	-5%	-11%
CCOC(=O)c1[nH]c2ccc(F)cc2c1NC(=O)CCN1CCSCC1	-17%	/
Nn1c(SCC(=O)NC(=O)Nc2ccc3c(c2)OCCO3)nnc1C1CC1	-9%	-14%
COc1cccc(NC(=O)C(=S)NC2CCCCC2)c1	-20%	-18%
O=C(NCc1ccoc1)c1ccc(NC(=O)c2ccccc2Cl)cc1	?	/
O=C(NC1CCCCC1)C(Cc1ccccc1)N1C(=O)C2C3CCC(C3)C2C1=O (stereo not given)	-16%	-4%
CCOC(=O)N1CCN(CCC(=O)Nc2cccc(F)c2)CC1	-6%	-9%
O=C(CCN1C(=O)COc2ccccc21)N1CCN(c2ccccn2)CC1	-8%	-19%
O=C(COc1ccc(S(=O)(=O)N2CCCC2)cc1)NCc1ccco1	-6%	i
Cc1ccnc2ccc3ccccc3c12	-31%	-12%
CC(=O)c1ccc(NC(=O)CSc2nc(C3CC3)nc3ccccc23)cc1	-21%	?
CCOC(=O)c1cc(Cl)c2c(ccc3ccccc32)n1	-9%	-7%
N#C/C(=C(/O)c1ccco1)c1nc2ccccc2s1	-16%	-18%
COc1ccc(N(CC(=O)N2CCN(c3ccccc3F)CC2)S(=O)(=O)c2c(C)noc2C)cc1	-13%&-4%	-20%&-9%
CC(C)CCNC(=O)CNC(=S)N(Cc1ccccc1)Cc1cccnc1	-10%	-22%
O=C(Nc1ccc2nc3n(c(=O)c2c1)CCCC3)c1ccccc1[N+](=O)[O-]	-15%	-9%
O=C(Oc1ccc(Br)cc1)c1cncc(Br)c1	-14%	i
O=C(COc1ccccc1)Nc1c2c(nn1-c1ccccc1)CS(=O)C2 (stereo not given)	-2%	-8%
Fc1ccccc1CN1CCC(Cc2ccccc2)CC1	-21%	i
Cc1nc([N+](=O)[O-])c(C(=O)OCc2ccccc2)n1C	-23%	-3%
CC(NC(=O)c1cc([N+](=O)[O-])cc([N+](=O)[O-])c1)C1CC2CCC1C2 (stereo not given)	-8%	?
CCOC(=O)C1(Cc2cccc(Cl)c2)CCCN(C(=O)c2cc(CC)on2)C1 (stereo not given)	-9%	-13%
CCC1CCCCN1CCN1C(=O)C2C(C(=O)Nc3cccc(OC)c3)C3C=CC2(O3)C1C(=O)NC1CCCCC1 (stereo not given)	-10%	i
CCN1CC(CN(C)Cc2nc(-c3ccc(C(F)(F)F)cc3)oc2C)CC1=O (stereo not given)	-11%	-13%
O=C(CCC(=O)Nc1cccc(C(F)(F)F)c1)NCC1CCCO1 (stereo not given)	-26%	-9%
COc1ccc(-c2nn(C)c3sc(C(=O)N4CCN(c5cccc(Cl)c5)CC4)cc23)cc1OC	-3%	-18%
CCOC(=O)N1CCN(C/C(Cl)=C/c2ccccc2)CC1	1%	-12%
Cc1noc(C)c1COc1cccc(C(=O)Nc2cccnc2)c1	-17%	-9%
Cc1c(NC(=O)c2cccc(NC(=O)COc3ccccc3C#N)c2)c(=O)n(-c2ccccc2)n1C	-9%	-14%
CCC(Sc1nc2ncccc2o1)C(=O)Nc1ccc(OC)c(OC)c1 (stereo not given)	-7%	1%
CN1CCC(OC(c2ccccc2)c2ccc(Cl)cc2)C1 (stereo not given)	-15%	-17%
Cn1c(O)c(/C=N/c2ncccn2)c(=O)n(C)c1=O	-3%	-4%
Nn1cc(-c2ccccc2)nc1SCC(=O)NC1CCS(=O)(=O)C1 (stereo not given)	-14%	-12%
Cc1[nH]c2ccccc2c1C(=O)NS(=O)(=O)Nc1ccc(Cl)cc1	-8%	-14%
COc1ccc(N2CCN(c3n[nH]c(N)n3)CC2)cc1	-2%	-8%
COc1ccc(C(=O)N2CC3(CC(c4cccc([N+](=O)[O-])c4)=NO3)C[C@H]2C(=O)NCC(N)=O)cc1 (stereo not given in full)	0%	i
CSc1nsc(SC)c1NC(=O)OCCc1ccccn1	-3%	-7%
Cc1ccc(C(=O)N(Cc2ccco2)Cc2ccco2)cc1	2%	8%
CC1=NN(c2ccccc2)C(=O)/C1=C/C=C/c1ccc(N(C)C)cc1	?	-28%
CCN1C(=O)[C@H]2[C@H]3CN=C(SCc4ccc(C)cc4)N3[C@@](C)(C(=O)OC)[C@H]2C1=O	-13%	-15%
O=C(N/N=C/c1cc(Br)ccc1O)c1ccncc1	-24%	?
O=C(CN1C(=O)COc2ccccc21)N1CCCC1	5%	-14%
CC1(C)SC(=S)N(NC(=O)Nc2cccc3ccccc23)C1N(O)C(=O)Nc1ccccc1 (stereo not given)	?	?
O=C(NNC(=S)NC(=O)c1ccccc1[N+](=O)[O-])c1ccccc1[N+](=O)[O-]	-15%	i
The results go on.
SMILES	VACV Venus inh	VACV mCherry inh
O=C(Nc1cccc(S(=O)(=O)C(F)F)c1)c1ccc(S(=O)(=O)N2CCCCC2)cc1	?	?
COc1cc(S(=O)(=O)N2CCN(Cc3ccc4c(c3)OCO4)CC2)c(C)cc1C	-2%	-1%
CCC1C(=O)NCCN1Cc1ccc2c(c1)CN(Cc1ccc(OC)cc1OC)CCO2 (stereo not given)	1%	-10%
CC/S(C)=N/S(=O)(=O)c1ccc(C)cc1 (stereo not given)	-3%	-17%
O=C(/C=C/c1cccc(Br)c1)N1CCN(c2cccc(C(F)(F)F)c2)CC1	-17%	-6%
Cn1ccnc1-c1ccc(-c2nccn2C)cc1	11%	5%
COc1ccc(Nc2oc(/C=C/c3cc(OC)c(OC)c(OC)c3)nc2C#N)cc1	2%	0%
Cc1ccc(NC(=O)c2sc3ncnc(N(C)C4CCCCC4)c3c2C)c(C)c1	-12%	-11%
O=C(Nc1ccn(CCOC(=O)c2ccccc2)c(=O)n1)c1ccccc1	0%	i
CCn1cc(-c2cc(C(=O)O)c3ccccc3n2)cn1	-11%	-18%
Cc1ccc(F)cc1NC(=O)CN1CCN(c2ccccn2)CC1	-8%	i
CCOC(=O)N1CCN(C(=O)CN(c2ccc3c(c2)OCO3)S(C)(=O)=O)CC1	-6%	-10%
Cc1cc(C)c(NC(=O)CSc2nc(=O)n(Cc3ccco3)c3c2CCC3)c(C)c1	-9%	-21%
O=C(Nc1ccccc1)Nc1nc(-c2ccc(F)cc2)cs1	-13%	i
O=C1CCN(CCc2ccccc2)CCN1CCSc1ccc(Br)cc1	-21%	-5%
Cc1ccc(NC(=S)N(CCN(C)C)Cc2cccs2)cc1C	-8%	-7%
CCCN(Cc1nnc(-c2cccs2)o1)C(=O)CN1C(=O)NC2(CCCCC2)C1=O	-14%	-20%
COc1ccc(NC(=O)CS(=O)(=O)c2cn(CC(=O)N3CCCC3)c3ccccc23)c(OC)c1	-6%	-6%
Clc1ccc2nc(-c3ccccc3)cn2c1	7%	3%
COc1ccc(C(=O)C2CCCN(C(=O)COc3ccc(C(C)=O)cc3)C2)cc1F (stereo not given)	-25%	-6%
CC1CCN(c2c(NCC3CCC(C(=O)NCCC4=CCCCC4)CC3)c(=O)c2=O)CC1 (stereo not given)	-16%	5%
Cc1cccc(NS(=O)(=O)c2ccc3c(c2)CCC(=O)N3)c1	-11%	-13%
CC(C)N(C(=O)Cn1cc(SCC(=O)Nc2ccccc2C(F)(F)F)c2ccccc21)C(C)C	-18%	-6%
CCOc1ccc2nc(COC(=O)c3cccs3)c(C(=O)c3ccccc3)[n+]([O-])c2c1	-14%	i
O=C(NC1CCN(C(=O)Nc2cccc(Cl)c2)CC1)c1ccco1	-6%	70%[activator]
C=CCN1C(=O)/C(=c2\sc3nc(=O)c(Cc4ccc(OC)c(OC)c4)nn3c2=O)c2ccccc21	-8%	-14%
COc1ccccc1CNC(=O)C1CCN(S(=O)(=O)c2ccc3c(c2)CCCN3C(C)=O)CC1	3%	-13%
O=C(c1cc(COc2c(F)cccc2F)on1)N1CCC(c2ccncc2)CC1	-4%	-22%
CCc1ccc(CNCc2ccc(OCC(O)CN(C)Cc3ccccc3)cc2)nc1 (stereo not given)	-12%	?
Cc1ccc(NC(=O)c2cccc(NC3=NC4CS(=O)(=O)CC4S3)c2)cc1C (stereo not given)	-2%	4%

Grouped by structure: those above with a nitro group on carbon.
SMILES	VACV Venus inh	VACV mCherry inh
C/C(Cn1nnc([N+](=O)[O-])n1)=N\NC(=O)c1ccccc1	13µM*	?
CNC(=O)c1nc(C)n(-c2ccc([N+](=O)[O-])cc2)n1	-9%	i
O=C(N/N=C/c1ccccc1[N+](=O)[O-])c1ccc(COc2ccccc2-c2ccccc2)cc1	-6%	-28%
O=C(Nc1ccc2nc3n(c(=O)c2c1)CCCC3)c1ccccc1[N+](=O)[O-]	-15%	-9%
Cc1nc([N+](=O)[O-])c(C(=O)OCc2ccccc2)n1C	-23%	-3%
CC(NC(=O)c1cc([N+](=O)[O-])cc([N+](=O)[O-])c1)C1CC2CCC1C2 (stereo not given)	-8%	?
COc1ccc(C(=O)N2CC3(CC(c4cccc([N+](=O)[O-])c4)=NO3)C[C@H]2C(=O)NCC(N)=O)cc1 (stereo not given in full)	0%	i
O=C(NNC(=S)NC(=O)c1ccccc1[N+](=O)[O-])c1ccccc1[N+](=O)[O-]	-15%	i
